Screening data from PubChem.
RE007 growth inh = less growth of the S. pombe RE007 Vpr strain; S. pombe RE007 Vpr strain, BacTiter-Glo ATP luminescence, 24 h; control for the full effect not named in the record; Potency, µM (top dose mostly 92.2 µM), without a hit: top-dose activity change, negative = less growth; 0.21% of 360,000 active; AID 651644; active = well fitted falling curve with a large enough effect; inconclusive = small, poorly fitted or top-dose-only effect; inactive = no such curve, though single readings can be large or run the other way;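 further: on the % scale 0 is the no-effect control and ±100 the full control effect; nearly all actives have a fitted effect of over 50% in size; the assay follows cell death caused by Vpr and the record does not say whether a fall means rescue or toxicity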
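Fission yeast strain RE007, carrying one chromosomally integrated HIV-1 vpr copy, was seeded at OD 0.01 in PMG+AL medium with 23 nL pinned compound. After 24 h at 30 °C and 99% humidity, viability was read by BacTiter-Glo luminescence.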
NS1 function inh = influenza NS1 inhibition; S. cerevisiae slowed by influenza A NS1, growth recovery by OD600; Potency, µM (doses to about 46.1 µM), inactives show at the top dose activity, positive = more growth; 0.4% of 270,000 active; AID 2326; active means well fitted rising curve with a large enough effect; inconclusive means small, poorly fitted or top-dose-only effect; inactive means no such curve, though single readings can be large or run the other way; further: nearly all actives have a fitted effect of over 50% in size
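In this qHTS, NS1 from influenza A is expressed in budding yeast, where it slows growth. Cells are switched from glucose to 2% galactose medium (pH 6.0, -URA), treated with compound, and growth recovery is read at OD600.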
SARS PLpro yeast = SARS-CoV PLP inhibition in yeast | S. cerevisiae expressing SARS-CoV PLpro, growth rescue; control for the full effect not named in the record | Potency, µM (titrated, usually from 32.9 µM), without a hit: at the top dose activity, positive = growth rescue | 0.19% of 330,000 active | AID 485353; active means well fitted rising curve with a large enough effect; inconclusive means small, poorly fitted or top-dose-only effect; inactive means no such curve, though single readings can be large or run the other way; further: 0% is about no effect; nearly all actives have a fitted effect of over 55% in size; growth read by luminescence after 48 h
Cruzain Triton = cruzain (T. cruzi) inhibition with detergent | P25779 | 0.43% of 200,000 active | Potency, µM, for inactives: max response, negative = inhibition, most hits filed as inhibitors | purified cruzain, Z-FR-AMC fluorescence, 0.01% Triton;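 further: plate controls were neutral wells for no effect and buffer without enzyme for full effect; nearly all actives have a fitted effect of over 40% in size; top concentration of the series not given in the record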
Target sequence (P25779 123-467 limits assumed): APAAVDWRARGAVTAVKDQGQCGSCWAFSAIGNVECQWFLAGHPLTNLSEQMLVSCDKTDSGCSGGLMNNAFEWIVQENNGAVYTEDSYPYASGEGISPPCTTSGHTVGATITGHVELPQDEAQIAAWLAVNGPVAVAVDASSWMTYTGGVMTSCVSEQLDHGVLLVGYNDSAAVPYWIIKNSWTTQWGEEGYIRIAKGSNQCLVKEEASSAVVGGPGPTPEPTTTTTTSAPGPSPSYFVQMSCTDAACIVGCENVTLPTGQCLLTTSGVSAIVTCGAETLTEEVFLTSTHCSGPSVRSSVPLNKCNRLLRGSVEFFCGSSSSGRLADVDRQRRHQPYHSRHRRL
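Steps: dispense cruzain (1.5 nM final) in acetate buffer pH 5.5 with DTT and 0.01% Triton X-100; pin-transfer compounds; incubate 15 min RT; add Z-FR-AMC (2 uM final); read fluorescence every 30 s, using the 60 s intensity change.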
Cruzain inh noDet = inhibitors of Trypanosoma cruzi cruzain without detergent. P25779. Potency, µM, without a hit: max response, negative = inhibition, usual class: inhibitors. 2.3% of 200,000 active. purified cruzain, Z-FR-AMC fluorescence, no detergent. AID 1476;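 further: plate controls were enzyme without inhibitor for no effect and buffer without enzyme for full effect; nearly all actives have a fitted effect of over 40% in size; top concentration of the series not given in the record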
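Detergent-free condition (0.00005% Triton X-100) in acetate buffer pH 5.5 with DTT. 1.5 nM enzyme and compound were pre-mixed 15 min, then 2 uM Z-FR-AMC substrate added; reaction progress from fluorescence change between first and third reads (60 s).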
StopGo reporter = lowers the luciferase signal of an FMDV 2A StopGo reporter | human cells with a luciferase reporter of 2A StopGo recoding; control for the full effect not named in the record | Potency, µM (titrated, usually from 57.9 µM), for inactives: at the highest dose signal change, negative = less light | 1.2% of 410,000 active | AID 1159524; active = well fitted falling curve with a large enough effect; inconclusive = small, poorly fitted or top-dose-only effect; inactive = no such curve, though single readings can be large or run the other way; tested in HEK293T cells; further: on the % scale 0 is the no-effect control and ±100 the full control effect; nearly all actives have a fitted effect of over 45% in size; luciferase light after 4 h
Lassa entry inh = Lassa virus entry inhibition. Lassa virus pseudotype entry inhibition, cell reporter; control for the full effect not named in the record. Potency, µM (top dose mostly 37.9 µM), for inactives: at the top dose activity change, negative = inhibition, usual class: inhibitors. 1.2% of 300,000 active. AID 540256; active means well fitted inhibition curve with a large enough effect; inconclusive means small, poorly fitted or top-dose-only effect, or effect the other way; inactive means flat fitted curve, though single readings scatter; tested in HEK293 cells; further: on the % scale 0 is the no-effect control and ±100 the full control effect; nearly all actives have a fitted effect of over 50% in size; luciferase read-out
Marburg entry inh = inhibitors of Marburg virus binding or cell entry; 1.8% of 300,000 active; Marburg virus pseudotyped entry inhibition, cell reporter; control for the full effect not named in the record; about a third of the inactives were read at about 46 µM; Potency, µM (titrated, usually from 37.8 µM), for the others: at the top dose activity change, negative = inhibition, hits mostly inhibitors; active = well fitted inhibition curve with a large enough effect; inconclusive = small, poorly fitted or top-dose-only effect, or effect the other way; inactive = flat fitted curve, though single readings scatter; tested in HEK293 cells; about a fifth of its hits are not listed in these tables; further: on the % scale 0 is the no-effect control and ±100 the full control effect; luciferase read-out
Active calls of the source: *; ? = inconclusive; nt = no result given; & = joins results of further samples; [ ] = another dose, or the depositor's remark. Unless noted, the call rests on the fitted dose curve; in most records, active means well fitted curve in the direction sought with a large enough effect; inconclusive means small, poorly fitted or top-dose-only effect, or another doubt; inactive means no such curve, though single readings can be large; an effect the other way counts as inactive or inconclusive. Potency means the concentration at half of the fitted maximal effect.

SMILES | RE007 growth inh | NS1 function inh | SARS PLpro yeast | Cruzain Triton | Cruzain inh noDet | StopGo reporter | Lassa entry inh | Marburg entry inh
CCOC(=O)CN1C(=O)NC2NC(=O)NC21 (stereo not given) | 14.1% | 5.3% | 2.5% | 2.1% | -14.2% | -3.2% | -7.4% | -1.0%
CC(=O)Nc1cccc(OC(=O)COc2ccc(Br)cc2)c1 | 4.4% | -6.9% | -6.9% | -5.9% | -3.7% | 28.5% | 2.7% | 20.9%
O=C(O)/C=C/C(=O)NNc1ccc([N+](=O)[O-])cc1 | -2.2% | -42.7% | -5.0% | nt | nt | -9.3% | -18.0% | -12.3%[46.1 µM]
COC(=O)c1ccc(C(=O)N(C)C2CCCN(Cc3ccccc3F)C2)cc1 (stereo not given) | -10.4% | 5.2% | -1.9% | nt | nt | -7.6% | nt | nt
Cc1ccccc1NC(=S)N1CCCC(c2nc3ccccc3[nH]2)C1 (stereo not given) | -3.4% | nt | -4.2% | nt | nt | -1.0% | -19.1% | -2.7%[14.2 µM]
O=C(COC(=O)c1cccc(S(=O)(=O)Nc2ccc(F)cc2)c1)NCCN1C(=O)CSC1=O | 4.2% | nt | -2.9% | nt | nt | 25.0% | ? | -2.3%[46.1 µM]
O=c1cc(C(F)(F)F)nc(SCc2cccnc2)[nH]1 | -5.5% | 6.0% | -4.5% | nt | nt | -10.3% | nt | nt
COc1ccc(N2CCN(C(=O)CNC(=O)Cc3ccccc3)CC2)cc1 | -15.1% | -0.8% | 8.4% | nt | nt | -6.3% | 3.9% | -5.2%
CC1CCN(C(=O)COc2coc(CN3CCc4ccccc43)cc2=O)CC1 | 2.7% | nt | 0.0% | nt | nt | 12.5% | ? | ?
CC(=O)c1ccc2c(c1)OCCOCCOCCO2 | 1.4% | 2.7% | 1.8% | nt | nt | -2.5% | 4.4%[46.1 µM] | ?
CC(=O)N(C)C1=Nc2ccc(Cl)cc2C(c2ccccc2)=[N+]([O-])C1 | -0.4% | nt | nt | nt | nt | 29.7% | -1.4%[46.1 µM] | ?
O=C(Nc1ccccn1)NC(C(F)(F)F)C(F)(F)F | 4.6% | 4.7% | -0.1% | 4.8% | -10.1% | 16.4% | 13.5% | 1.0%
CCC(C)NC(=O)CCSCCC(=O)NC(C)CC (stereo not given) | -1.0% | -1.8% | 8.5% | -0.9% | -14.0% | -16.2% | -6.7% | ?
COc1cc(NC(=O)CN(C)S(=O)(=O)c2ccc3c(c2)CCCC(=O)N3)cc(OC)c1OC | nt | nt | nt | -0.6% | -7.2% | -22.1% | 24.5%[46.1 µM] | nt
Cc1ccc(NC2CCCN(C(=O)CSc3ccccn3)C2)cc1C (stereo not given) | -25.2% | 1.9% | -3.6% | nt | nt | -25.4% | 7.0% | -22.2%
CCNC(=S)N(CCc1cccc(C)c1)Cc1cc2cc(OC)c(OC)cc2[nH]c1=O | -4.1% | 13.5% | 17.8% | -12.3% | ? | 0.0% | ? | ?
CC(OC(=O)C(C)N1C(=O)C2C3C=CC(C4CC34)C2C1=O)C(=O)c1ccccc1 (stereo not given) | 19.1% | -4.3% | 5.7% | -1.8% | 2.7% | ? | -5.3% | -0.1%
CSc1nnc2c(n1)c(C)nn2-c1cccc(C)c1 | 8.0% | -2.0% | -8.0% | -6.3% | -26.5% | 29.3% | ? | ?
Cc1ccc(Cn2ccc(NC(=O)C3C4CCC(C4)C3C(=O)O)n2)cc1 (stereo not given) | -0.8% | 0.0% | -2.1% | -3.1% | 8.3% | -15.1% | -22.3% | -13.3%
CCN=C1S/C(=C\c2cn(CC)c3ccccc23)C(=O)N1CC | -8.6% | 8.0% | -16.5% | -5.6% | 19.8% | -12.2% | ? | -13.2%[46.1 µM]
Clc1ccc(CONc2ncnc3nonc23)c(Cl)c1 | -7.0% | nt | -17.0% | nt | nt | ? | 14.0%[46.1 µM] | ?
O=[N+]([O-])c1ccc2c(c1)C=C1CCCCC1(N1CCCC1)O2 (stereo not given) | -14.1% | 2.4% | 1.9% | -2.7% | -7.9% | 0.0% | 13.7% | 28.5%
CCOc1ccc(C(=O)NCC(c2ccc3c(c2)OCO3)N2CCOCC2)cc1 (stereo not given) | nt | nt | nt | 0.5% | 4.8% | -7.0% | -12.0%[46.1 µM] | nt
COc1ccc(S(=O)(=O)N(C)CC(=O)N2CCCC2)cc1OC | -5.4% | -1.9% | 1.0% | nt | nt | -4.9% | nt | nt
CC(C)C(NS(=O)(=O)c1ccc2c(c1)oc(=O)n2C)C(=O)NCc1ccccc1 (stereo not given) | nt | nt | nt | 0.1% | -15.0% | -9.3% | 16.2%[46.1 µM] | -4.7%[46.1 µM]
(cont.)
SMILES | RE007 growth inh | NS1 function inh | SARS PLpro yeast | Cruzain Triton | Cruzain inh noDet | StopGo reporter | Lassa entry inh | Marburg entry inh
CCOc1ccc(C(=O)C[n+]2ccc(C(=O)NCc3ccccc3)cc2)cc1 | 5.8% | 7.7% | 1.0% | nt | nt | -10.4% | nt | -18.1%[46.1 µM]
CC1(c2ccc3ccccc3c2)NC(=O)N(CC(=O)NCC(C)(C)N2CCOCC2)C1=O (stereo not given) | -6.3% | nt | -10.0% | nt | nt | -10.1% | 1.5% | -5.1%[46.1 µM]
CCc1nc(Nc2ccc3nccnc3c2)c2oc3ccccc3c2n1 | 14.4% | -18.8% | -1.4% | 4.3% | ? | nt | ? | ?
CC1(C(=O)NC(=S)N(Cc2ccccc2)c2ccccn2)CC1(Cl)Cl (stereo not given) | 5.9% | 15.1% | 16.7% | -3.4% | -3.5% | 35.9%[activator] | 4.5% | -3.9%
COc1ccc(CCNC(=O)C2CCN(S(=O)(=O)c3cccc4nonc34)CC2)cc1OC | -0.5% | 12.4% | -3.1% | -1.2% | -0.5% | ? | 0.5% | 0.0%&0.0%[46.1 µM]
CC(=O)N(c1nnc(-c2cccc(C)c2)s1)C1CCCC1 | 11.4% | 8.9% | 1.6% | nt | nt | 3.0% | -13.6%[46.1 µM] | ?
Cc1ccc(NC(=O)c2cnn3c(C(F)F)cc(-c4ccccc4)nc23)c(C)c1 | nt | nt | nt | -0.6% | -3.3% | -17.4% | -0.6%[46.1 µM] | -1.8%[46.1 µM]
CC1=C(n2nnc([N+](=O)[O-])n2)C(c2cccnc2)C(C#N)=C(N)O1 (stereo not given) | 3.6% | 7.3% | 27.4% | -5.4% | -11.8% | ? | ? | ?
COCCN(C(=O)COC(=O)c1cc2ccccc2cc1OC)c1c(N)n(Cc2ccccc2)c(=O)[nH]c1=O | 6.2% | nt | 2.0% | nt | nt | -6.1% | -13.9% | -6.7%[46.1 µM]
Cc1ccc(C)c(NC(=O)CCN2CCCCC2)c1 | -12.4% | -11.9% | -1.1% | nt | nt | -3.0% | 5.6%[46.1 µM] | -12.5%[46.1 µM]
CC1CCN(c2nc3c(=O)[nH]c(N)nc3n2[C@@H]2O[C@H](CO)[C@@H](O)[C@H]2O)CC1 | 16.3% | 0.3% | -0.8% | nt | nt | -13.0% | 23.9%[46.1 µM] | 10.5%[46.1 µM]
Cc1ccc(C(=O)OCC(=O)N2CCC(c3ccccc3)=N2)c(C)c1 | 6.4% | nt | -7.0% | nt | nt | -6.6% | 4.6% | 8.0%[46.1 µM]
CCOC(=O)c1nc(C)nc(Sc2n[nH]c(-c3cc(Cl)cc(Cl)c3)n2)c1C | 1.8% | -11.4% | 1.2% | nt | nt | -5.0% | 3.9%[46.1 µM] | 5.2%[46.1 µM]
Cc1ccc(NC(=O)CSc2ncccn2)c([N+](=O)[O-])c1 | 9.4% | nt | 3.1% | nt | nt | 37.7%[activator] | ? | ?
CC(C)(C)NC(=O)NC(=O)CN1CCN(c2ncc(C(F)(F)F)cc2Cl)CC1 | -14.7% | -0.5% | 27.1% | -4.1% | ? | ? | ? | ?
CCOC(=O)N1CCN=C1SCc1ccc(C(F)(F)F)cc1 | -12.1% | nt | 3.1% | nt | nt | -22.4% | nt | -7.2%[46.1 µM]
Cc1ccc2c(=O)cc(CSc3nnc(-c4ccccc4)n3C)[nH]c2c1C | nt | nt | nt | 1.8% | -16.6% | 35.5%[activator] | -20.3%[46.1 µM] | nt
COc1ccc(NC(=S)NCCSc2ccc(C)cc2)c(OC)c1 | 1.3% | nt | nt | nt | nt | -10.9% | ? | -29.6%
CCOc1ccccc1NC(=O)C1CCCN1S(=O)(=O)c1ccc2c(c1)C(C)(C)C(=O)N2C (stereo not given) | nt | nt | nt | -1.5% | ? | -23.0% | 0.3%[46.1 µM] | nt
CCOC(=O)CC1C(=O)NCCN1S(=O)(=O)c1ccc(Cl)cc1Cl (stereo not given) | 5.1% | -7.8% | -1.4% | 6.6% | -3.0% | -9.3% | 4.2% | ?
O=C(NC1CCCCCC1)C1CCN(c2nc3ccccc3o2)CC1 | -9.0% | -55.7% | -8.7% | 0.5% | -3.8% | ? | nt | 2.3%
COc1ccc(CNC(=O)c2cc3c(=O)oc4ccc(C)cc4c3s2)c(OC)c1 | nt | nt | nt | -1.2% | 9.0% | -11.1% | 18.8%[46.1 µM] | 3.4%[46.1 µM]
COc1ccc(NCc2ccc([N+](=O)[O-])s2)c(OC)c1 | ? | -28.2% | -101.8% | -8.2% | -3.1% | -15.1% | 16.6% | 11.9%
COc1ccc(CNC(=O)COC(=O)c2ccccc2OCC(=O)Nc2ccc(SC(F)F)cc2)cc1 | 22.9% | 3.8% | -5.4% | nt | nt | -6.6% | -1.7% | 6.2%[46.1 µM]
Cc1ccc(C(=O)c2cn(Cc3ccccc3C)c3nc(C)ccc3c2=O)cc1 | nt | nt | nt | -11.0% | -20.5% | -18.6% | ? | ?
COc1ccc(N(C(=O)c2ccc(C(C)(C)C)cc2)S(=O)(=O)c2ccc(Cl)cc2)cc1 | nt | nt | nt | -2.8% | 10µM* | 3.1% | ? | nt
CCOc1ccc(NC(=S)N2CCC(C(N)=O)CC2)cc1 | 0.1% | 5.7% | 1.3% | -0.6% | -2.8% | 3.3% | 9.1% | ?
COCc1ccc(C(=O)N(C)C2CCCN(Cc3ccccc3F)C2)o1 (stereo not given) | 3.3% | -13.0% | 0.6% | nt | nt | -9.1% | -13.7% | -11.6%
